Source: PubChem
VDR inhibitor = Inhibitors of the vitamin D receptor (VDR): qHTS. VDR-SRC2-3 peptide fluorescence polarization, 2 h. Potency, µM, for inactives: max response, negative = inhibition, actives largely listed as inhibitors. 400,000 compounds, 0.93% hits; active = well fitted inhibition curve with a large enough effect; inconclusive = small, poorly fitted or top-dose-only effect, or another doubt; inactive = no such curve, though single readings can be large or run the other way; also: series mostly up to about 120 µM
Target sequence (P11473 whole entry, looked up): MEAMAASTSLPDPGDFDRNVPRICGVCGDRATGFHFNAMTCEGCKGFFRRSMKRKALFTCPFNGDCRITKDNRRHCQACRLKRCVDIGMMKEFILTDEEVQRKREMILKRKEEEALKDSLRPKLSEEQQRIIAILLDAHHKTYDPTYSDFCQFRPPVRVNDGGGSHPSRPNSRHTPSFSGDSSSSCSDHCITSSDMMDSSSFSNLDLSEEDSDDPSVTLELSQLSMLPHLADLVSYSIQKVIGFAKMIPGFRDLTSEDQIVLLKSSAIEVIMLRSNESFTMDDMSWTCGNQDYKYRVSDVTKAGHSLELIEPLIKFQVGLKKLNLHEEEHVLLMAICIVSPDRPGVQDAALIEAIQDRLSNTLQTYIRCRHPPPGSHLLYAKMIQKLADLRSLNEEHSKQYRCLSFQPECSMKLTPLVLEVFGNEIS
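Inhibition of the VDR/SRC2-3 peptide interaction is quantified by fluorescence polarization. Compounds (23 nl, pintool) incubate with the reagents for 2 hours at ambient room temperature.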
An asterisk follows results filed as active; ? = inconclusive; & = joins results of further samples. % is scaled to controls: 0 for no effect and ±100 for the full control effect; potency is read from the fitted curve at half-maximal effect. This is a subset; the hit share may differ from the screen's.

#	SMILES	VDR inhibitor
1	COc1ccc(N2CC(C(=O)Nc3nc4ccc(F)cc4s3)CC2=O)c(OC)c1 (stereo not drawn)	2.1%
2	COc1ccccc1CNC(=O)CSC1=NCCS1	?
3	CCOC(=O)C1=C(Cc2ccc(OC)cc2)C(=O)c2ccccc2C1=O	7.94µM*
4	CC1CC(C)CN(S(=O)(=O)c2ccc(C(=O)N3CC(C)OC(C)C3)cc2)C1 (stereo not drawn)	1.4%
5	Cc1nn(Cc2ccccc2Cl)c(Cl)c1C(=O)NCCc1ccccc1	-7.8%
6	Cc1cccc(C)c1NC(=O)CCCCCC1NC(=O)NC1C (stereo not drawn)	-19.1%
7	CCOCCCNC(=O)CN1C(=O)/C(=C/c2ccccc2C)Sc2ccccc21	-8.6%
8	C#CCOCCOCCOCCNc1nc(N2CCN(C(=O)[C@H](CCCCN)n3cc([C@@H](N)CC(C)C)nn3)CC2)nc(N2CCN(C(=O)[C@H](Cc3ccc(O)cc3)n3cc([C@@H](N)CC(C)C)nn3)CC2)n1	-9.5%
9	Cc1oc2nc(SCC(=O)N3CCCCC3)nc(N)c2c1C	-17.1%
10	CC1CCC(NC(=O)c2cc(S(=O)(=O)N3CCCCC3)ccc2N2CCOCC2)CC1 (stereo not drawn)	-14.3%

The list goes on, overlapping the part above by seven compounds.
#	SMILES	VDR inhibitor
4	CC1CC(C)CN(S(=O)(=O)c2ccc(C(=O)N3CC(C)OC(C)C3)cc2)C1 (stereo not drawn)	1.4%
5	Cc1nn(Cc2ccccc2Cl)c(Cl)c1C(=O)NCCc1ccccc1	-7.8%
6	Cc1cccc(C)c1NC(=O)CCCCCC1NC(=O)NC1C (stereo not drawn)	-19.1%
7	CCOCCCNC(=O)CN1C(=O)/C(=C/c2ccccc2C)Sc2ccccc21	-8.6%
8	C#CCOCCOCCOCCNc1nc(N2CCN(C(=O)[C@H](CCCCN)n3cc([C@@H](N)CC(C)C)nn3)CC2)nc(N2CCN(C(=O)[C@H](Cc3ccc(O)cc3)n3cc([C@@H](N)CC(C)C)nn3)CC2)n1	-9.5%
9	Cc1oc2nc(SCC(=O)N3CCCCC3)nc(N)c2c1C	-17.1%
10	CC1CCC(NC(=O)c2cc(S(=O)(=O)N3CCCCC3)ccc2N2CCOCC2)CC1 (stereo not drawn)	-14.3%
11	CC1(C)S[C@@H]2[C@H](NC(=O)[C@@H](N)c3ccc(O)cc3)C(=O)N2[C@H]1C(=O)O	3.9%
12	C[C@H](NC(=O)c1ccco1)C(=O)NCCc1ccc(S(N)(=O)=O)cc1	?
13	Cc1ccccc1C1(CCN2CCCCC2)CCOC(C)(C)C1 (stereo not drawn)	-16.6%
14	CCOc1cc(N2CCOCC2)c(OCC)cc1NC(=O)c1ccco1	-14.5%
15	Cc1ccc2c(c1)NC(=O)C(CC(=O)NCCCN1CCCC1)O2 (stereo not drawn)	-5.4%
16	COc1ccccc1NC(=O)c1ccc(NC(=O)CN2CCCCC2)cc1	6.4%
17	CCOc1ccc(S(=O)(=O)n2cnc3cc(C)c(C)cc32)cc1	0.5%
18	COCCCn1c2nc3ccccc3nc2c2c(=O)n(CC3CCCO3)cnc21 (stereo not drawn)	-6.7%
19	CCn1cc(S(=O)(=O)c2ccccc2)c(=O)c2cc(F)c(N3CCCC3)cc21	8.0%
20	CCCC(=O)NNC(=O)c1ccoc1C	1.7%
21	CC(C)(C)C(=O)Nc1cc(C(F)(F)F)ccc1-n1ccnc1	4.8%
22	O=C(CC1C(=O)NCCN1Cc1c(F)cccc1Cl)NCCc1ccccn1 (stereo not drawn)	1.0%
23	CC(C)CCC1(C)NC(=O)N(CC(=O)c2ccc[nH]2)C1=O (stereo not drawn)	11.5%
24	CCn1c(/C=C2\C(=O)N(C)c3ccccc32)nc2ccccc2c1=O	-13.0%
25	CN(C)c1nc(NNC(=O)c2ccccc2)nc(N(C)C)n1	-20.0%
26	O=C1CC(N2CCC(O)(c3ccc(Cl)cc3)CC2)C(=O)N1Cc1ccc(N2CCCC2=O)cc1 (stereo not drawn)	12.4%
27	Cc1sc(-n2cccc2)c(C(=O)O)c1C	-4.9%
28	COc1cc(OC)c(C(=O)NC23CC4CC(CC(C4)C2)C3)cc1OC	-22.1%
29	CS(=O)(=O)N(CCC(=O)O)Cc1ccccc1	-12.3%
30	CC(C)(C)c1cc(C(=O)NCc2ccco2)ccn1	-11.2%
31	CC(C)(C)OC(=O)N(CCc1ccccc1)Cc1cccc(OCc2cccc(NC(=O)/C=C/c3ccccc3)c2)c1	29.4%
32	Cc1ccc(-c2nn(-c3ccccc3)cc2/C=C2\SC(=S)N(CCCCCC(=O)O)C2=O)o1	?
33	O=C(Nc1cccc(F)c1)C1CCN(S(=O)(=O)c2cccc3nonc23)CC1	1.0%
34	C=CCn1c(-c2cc(OC)cc(OC)c2)n[nH]c1=S	3.6%
35	CCOc1ccc2oc(=O)cc(C)c2c1	-16.3%
36	CC(C)C(=O)Nc1sc2c(c1C#N)CCCCC2	-8.6%
37	O=C(NC1CCCCCC1)c1ccc(S(=O)(=O)NCc2ccco2)cc1	2.3%
38	Cc1ccc(NC(=O)C2(c3ccccc3)CCCC2)nc1	6.0%
39	Cc1ccc2c(c1)C1CN(C)CCC1N2C(=O)Nc1ccc(Cl)cc1 (stereo not drawn)	7.0%
40	COc1ccc(S(=O)(=O)Cc2ccc(C(=O)NC3CC3)o2)cc1	-3.2%
41	COc1cc(/C=N/NC(=O)Cc2ccc(Br)cc2)cc(OC)c1O	6.9%
42	CCn1cc(CN2CCCC(C(=O)Nc3ccc(-c4nc5ccccc5[nH]4)cc3)C2)c(C)n1 (stereo not drawn)	-0.9%
43	C[C@H]1CN([C@@H](C)CO)C(=O)Cc2cc(NC(=O)Cn3cnnn3)ccc2O[C@H]1CN(C)Cc1ccncc1	-6.8%
44	O=C(COc1ccccc1)NCc1ccc2c(c1)OCO2	9.7%
45	COCCn1c(=NC(C)=O)sc2cc([N+](=O)[O-])ccc21	-3.2%
46	COc1ccc(NC(=O)Nc2cc(C)ccn2)cc1	6.1%
47	CCCc1cc(C(N)=O)c(NC(=O)c2ccco2)s1	-6.5%
48	O=S(=O)(c1ccc2ccccc2c1)N(CC1CO1)c1ccccc1 (stereo not drawn)	-0.5%
49	CC(NC(=O)c1cccnc1)c1ccc2c(c1)OCO2 (stereo not drawn)	-1.9%
50	CC1(C)CC(=O)C(C=NCCN2CCN(CCCCS(=O)(=O)O)CC2)=C(O)C1	1.4%
51	COc1cc(CCC(=O)OCC(=O)Nc2ccccc2OC(F)F)cc(OC)c1OC	4.0%
52	COc1cc(O)c(C(CCN2CCCC(C)C2)c2cc(OC)c(OC)c(OC)c2)c(OC)c1 (stereo not drawn)	-10.4%&3.9%
53	COC(=O)c1ccc(COc2ccc(/C=N/O)cc2)o1	12.4%
54	CC[C@@H]1CC=C[C@H]2[C@H]1C(=O)N(Cc1ccccc1)[C@H]2c1ccc(OC)c(Cl)c1	-6.0%
55	CC1CCCCN1C(=O)Cn1c(=O)n(C2CCCCC2)c(=O)c2ccccc21 (stereo not drawn)	22.4%
56	O=C(Cc1ccc2c(c1)OCCO2)c1c(O)cc(O)cc1O	-0.7%
57	O=C(O)CCc1c(C(=O)O)[nH]c2cc(Cl)cc(Cl)c12	-20.6%
58	Cc1ccc(C23CC4CC(CC(CC(=O)NC(C)(C)CO)(C4)C2)C3)cc1	-8.1%
59	CCc1ccc(NS(=O)(=O)c2cc3c4c(c2)CCN4C(=O)CC3)cc1	-8.8%
60	CCOc1cc(/C=C2\SC(=S)N(C(C(=O)O)c3ccccc3)C2=O)ccc1O (stereo not drawn)	-20.2%

New compounds follow.
#	SMILES	VDR inhibitor
61	S=C(NCCc1ccccc1)NCC1CCCO1 (stereo not drawn)	1.1%
62	COc1cccc(N=CNc2cccc(OC)c2)c1	6.2%
63	CCN(CC)CCN(C(=O)c1ccc(Br)s1)c1nc2cc3c(cc2s1)OCO3	-12.3%
64	CCOc1ccc(C(Nc2ccc(C)cc2)P2(=O)OCCC(C)O2)cc1 (stereo not drawn)	2.3%
65	O=C(C[n+]1cc(-c2ccccc2)n2c1CCC2)Nc1nc(-c2ccc(F)cc2)cs1	-2.8%
66	O=C1NN(c2ccccc2)C(=O)/C1=C\c1cccc(OC(=O)c2cccs2)c1	50.1µM*
67	O=S(=O)(NC1C2CC3CC(C2)CC1C3)c1ccc(F)cc1 (stereo not drawn)	12.1%
68	O=C(c1ccc(Cl)cc1)N1CCC(O)(CSc2ccc(Cl)cc2Cl)CC1	14.2%
69	CCCNC(=O)c1ccc(Cn2c(=O)c3cccn3c3cccnc32)cc1	4.6%
70	Nn1c(SCc2ccc(Br)cc2)nnc1-c1ccncc1	-3.8%
71	COc1ccc(CN(CC2CCCO2)C(=O)c2cc3ccccc3oc2=O)cc1 (stereo not drawn)	-15.2%
72	Cc1cc(=O)oc2cc(NC(=O)c3cc(F)ccc3F)ccc12	-26.6%
73	Cc1cc(NC(=O)c2cc(C(C)C)on2)no1	0.8%
74	CS(=O)(=O)N(CC(=O)Nc1ccccc1C(=O)N1CCOCC1)c1ccc(Cl)cc1	-10.5%
75	Cc1ccccc1-c1nn[nH]n1	-16.9%
76	C=CCn1c(Cc2cccc3ccccc23)n[nH]c1=S	-7.2%
77	CCN1CCN(C(=O)c2cc(COc3c(C)cccc3C)on2)CC1	-12.2%
78	Cc1cccc(C)c1NC(=O)CCCN1C(=O)CCn2nc(-c3cn(C)c4ccccc34)cc21	-2.0%
79	COc1ccc(-c2ccccc2NC(=O)C2CCCN(Cc3ccco3)C2)cc1 (stereo not drawn)	-9.2%
80	Cc1[nH]c2ccccc2c1CN1CCC(CO)(Cc2ccccc2)CC1	16.2%
81	Cc1cc(C)nc(N2CCC(C(=O)NCc3ccco3)CC2)n1	13.5%
82	CN(C(=O)CSc1nnc(-c2c[nH]c3ccccc23)n1C1CC1)C1CCS(=O)(=O)C1 (stereo not drawn)	6.5%
83	CC(C(=O)OCC(=O)c1cccc([N+](=O)[O-])c1)N1C(=O)C2C3C=CC(C3)C2C1=O (stereo not drawn)	2.4%
84	O=C1C(=O)N(Cc2ccncc2)C(c2cccc(O)c2)/C1=C(\O)c1ccc2c(c1)OCCO2 (stereo not drawn)	1.4%
85	Cc1c(C(=O)N(Cc2nccn2C)C(C)C)oc2c(F)cccc12	-5.4%
86	O=C(CNC(=S)N(CCCN1CCOCC1)Cc1cccs1)NC1CCCC1	14.9%
87	CC(C)(C)N1OC2CC1c1nc3ccccc3n1C2 (stereo not drawn)	-15.4%
88	CC1=C(C(=O)Nc2ccccc2)C(c2ccncc2)n2nnnc2N1 (stereo not drawn)	8.3%
89	CCOC(=O)c1ccc(NC(=O)CC2S/C(=N/N=C/c3c[nH]c4ccccc34)NC2=O)cc1 (stereo not drawn)	?
90	CC(CCc1ccc(O)cc1)NCCC(c1ccccc1)c1ccccc1 (stereo not drawn)	4.6%
91	Cn1c(SCCS(=O)(=O)c2ccc(Cl)cc2)nnc1-c1ccccc1	2.6%
92	CC(C)(C)NC(=O)c1cccc(NC(=O)CSc2ccc(Cl)cc2)c1	-28.0%
93	CCOc1cc(/C=C2\SC(=Nc3ccccc3)N(c3ccccc3)C2=O)ccc1OCC(=O)O	-27.2%
94	COc1ccc(Oc2nccc(OC)c2C#N)cc1	-8.1%
95	NC(=O)COc1ccc2oc(-c3ccccc3)cc(=O)c2c1	14.8%
96	COC(=O)/C(=N/Nc1ccccc1OC)N1CCCc2ccccc21	-19.5%
97	O=C(Oc1ccccc1F)c1nc(SCc2ccccc2F)ncc1Cl	-17.8%
98	Oc1ccccc1-c1nc(NCCN2CCOCC2)c2ccccc2n1	13.8%
99	Cc1ccc2c(C(=O)N3CCN(c4ccccc4)CC3)cc(-c3cccnc3)nc2c1C	9.4%
100	COc1ccc(S(=O)(=O)n2nc(-n3c(C)ccc3C)c3c(F)cccc32)cc1OC	-8.4%
101	C#CCOCCOCCOCCNc1nc(N2CCN(C(=O)C([C@@H](C)O)n3cc([C@@H](N)CCCCN)nn3)CC2)nc(N2CCN(C(=O)[C@H](CO)n3cc([C@@H](N)C(C)C)nn3)CC2)n1 (stereo partly drawn)	-10.5%
102	COc1ccc(/C=C/c2c(-c3ccc(OC)cc3)sc3ccc(N4CCOCC4)cc23)cc1	-2.3%
103	Cc1nc(N)[nH]c(=O)c1CCCNc1ccc(CCC2(CCl)OCCO2)cc1	4.4%
104	Cc1cc(C(=O)NNC(=O)c2cccc(Cl)c2)no1	9.5%
105	CCCCNC(=O)COC(=O)c1cc(S(=O)(=O)N2CCCCCC2)ccc1OC	-19.2%
106	CC[C@]12c3[nH]c4ccccc4c3CCN1C(=O)C(CC(=O)NCc1cccc(C(F)(F)F)c1)C[C@@H]2C(=O)N1CCN(C(=O)c2ccco2)CC1 (stereo partly drawn)	-3.1%
107	Cc1ccc(C)c(NC(=O)n2ncc3cc(Cl)ccc32)c1	2.7%
108	CCCCOc1ccc(-c2nnn(CC(=O)Nc3ncc(CC(=O)OCC)s3)n2)cc1	-5.6%
109	O=CNCCc1nc2ccccc2n1CCc1ccccc1	0.5%
110	Cc1ccc(CN2C(=O)C(CC(C)C)Nc3ncnc(N4CCN(c5ccccc5)CC4)c32)cc1 (stereo not drawn)	-9.1%

New compounds follow:
#	SMILES	VDR inhibitor
111	COc1ccc(NC(=O)CS(=O)c2ccc(Br)cc2)cc1 (stereo not drawn)	26.3%
112	CC1(c2ccc3c(c2)OCCO3)NC(=O)N(CC(=O)Nc2ccccc2SCC#N)C1=O (stereo not drawn)	2.6%
113	O=C(NC1CC(=O)N(c2ccccc2)C1)c1cc2ccccc2o1 (stereo not drawn)	2.3%
114	Cc1ccc(S(=O)(=O)c2c(N)n(NC(=O)c3ccccc3C)c3nc4ccccc4nc23)cc1	3.5%
115	COc1ccc(-n2ncc3c(N4CCN(c5cccc(C)c5)C(C)C4)ncnc32)cc1 (stereo not drawn)	14.9%
116	O=C1[C@H](Oc2ccccc2)[C@@H](c2ccncc2)N1c1ccncc1	-9.6%
117	O=C(O)CCCCCNc1nc2ncn(Cc3ccccc3)c2c(=O)[nH]1	-5.9%
118	CN(C)S(=O)(=O)c1ccc(C(=O)Nc2ccc3c(c2)CCC3)cc1	3.7%
